High-throughput results deposited in PubChem BioAssay by several laboratories.
WNV protease inh = blocks West Nile virus NS2B-NS3 protease activity | P06935 | WNV NS2B-NS3 protease, fluorogenic substrate Ex360/Em465; stronger effect = lower value | z-score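 (tested at a level between 10 and 100 µM)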 | 65,000 compounds, 0.18% hits | AID 577;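 active means z-score at -3 or under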;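 further: score is relative to mean and spread of the compound wells of a plate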
Target sequence (P06935 1371-1501 limits assumed): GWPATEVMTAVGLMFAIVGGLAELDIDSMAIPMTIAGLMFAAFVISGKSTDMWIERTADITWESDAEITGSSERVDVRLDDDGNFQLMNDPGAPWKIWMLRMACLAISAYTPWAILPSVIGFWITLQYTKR
Target sequence (P06935 1502-1679 limits assumed): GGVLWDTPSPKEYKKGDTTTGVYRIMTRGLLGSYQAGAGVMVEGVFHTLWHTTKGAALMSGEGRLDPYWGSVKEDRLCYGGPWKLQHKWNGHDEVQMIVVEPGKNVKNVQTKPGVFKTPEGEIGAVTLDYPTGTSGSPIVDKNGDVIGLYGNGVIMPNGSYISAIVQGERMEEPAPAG
MT1-MMP promoter = inhibitors of MT1-MMP promoter transcription, cell-based, luciferase reporter, luminescence (AID 618); MT1-MMP promoter luciferase reporter cells, luminescence; calls from a first round at 10 µM; hits with a dose series show EC50 in µM; 87,000 compounds, 0.62% hits;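 active means over half of the reporter light lost at 10 µM or EC50 under 50 µM; inactive means the rest and hits that failed the dose series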;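 further: actives suppress MT1-MMP promoter-driven transcription so potencies describe inhibitors; HT1080 fibrosarcoma cells; overnight exposure; toxic or luciferase-blocking compounds were not removed from the actives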
Hsc70 = small molecules displacing fluorescent ligand from Hsc70 – biochemical, fluorescence polarization, primary screen (AID 568); displacement, % at 20 µM, or IC50 in µM where a hit was titrated; 83,000 tested, under 10 active; Hsc70 fluorescence polarization, probe displacement; higher % means a stronger effect; strong numbers were not always called active;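 active means displacement above 50% without optical interference and an IC50 on retest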;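 further: ATPase domain with a fluorescein-tagged ATP probe; 0% = vehicle and 100% = excess ADP; read after one hour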
* marks the source's active call; other numbers are inactive results; i = inactive; · = not tested or not shown.

structure	WNV protease inh	MT1-MMP promoter	Hsc70
Oc1oc(-c2ccccc2)nc1C=Nc1cccc2ccccc12	·	i	2.7%
CN(C=O)CP(=O)(O)CN1CCCCC1	·	i	1.6%
Cc1ccc(NC(=O)CN(C)S(=O)(=O)c2cccc3cccnc23)cc1	0.47	i	6.7%
CC(C)OC(=O)c1c(N)n(CCCN2CCOCC2)c2nc3ccccc3nc12	·	i	0.7%
COc1ccc(-n2nc3c(c2NC(=O)C24CC5CC(CC(C5)C2)C4)CS(=O)C3)cc1 (stereo unspecified)	-1.14	i	-3.1%
CCOC(=O)C1C(=O)OC2(CCOC(C)(C)C2)C1C(=O)OCC (stereo unspecified)	-0.86	i	-2.1%
CCNC(=O)N1C(CC(=O)OCC)C(=O)NC2CCCCC21 (stereo unspecified)	-0.01	i	3.2%
N#Cc1c(NC(=O)CSc2nc(N)cc(=O)[nH]2)sc2c1CCCCCC2	0.02	i	4.9%
CCCc1cc2c(=O)c(-c3ccccn3)c(C)oc2cc1O	-0.94	i	-0.2%
CCOC(=O)c1cnc2scnn2c1=O	-0.57	i	1.8%
Cc1ccc(N=N/C(=C\O)C(=O)c2ccncc2)cc1	·	i	4.0%
CCNc1nc(OC)nc(SCC(N)=O)n1	-1.03	i	11.1%
CCCCCCc1c(O)nc(SCC(=O)O)[nH]c1=O	0.87	i	7.9%
O=C(Nn1cnnc1)c1ccccc1CCc1ccccc1	0.65	i	-0.8%
c1ccc(CN2c3ccccc3-c3nc4ccccc4n3C2c2ccccn2)cc1 (stereo unspecified)	·	i	-0.2%
C=CCn1c(-c2ccco2)n[nH]c1=S	0.00711	i	-3.1%
COC(=O)c1cc(Br)c(=O)n(CCc2ccc(O)cc2)c1	·	i	-1.3%
O=c1cc(N2CCN(c3ccc(F)cc3)CC2)[nH]c(=O)n1C1CCCCC1	0.89	i	-4.9%
CCOC(=O)Cc1cc(=O)n(-c2nc3ccccc3s2)[nH]1	1.49	i	-6.8%
Cn1c(=O)c2nc(-c3ccccc3)oc2c2ccccc21	0.54	i	-2.3%

Compound profiles (already shown). Screens in order: WNV protease inh | MT1-MMP promoter | Hsc70
`O=c1cc(N2CCN(c3ccc(F)cc3)CC2)[nH]c(=O)n1C1CCCCC1` is listed as 0.89 | i | -4.9%
`Cc1ccc(N=N/C(=C\O)C(=O)c2ccncc2)cc1` is listed as · | i | 4.0%
`COC(=O)c1cc(Br)c(=O)n(CCc2ccc(O)cc2)c1` is listed as · | i | -1.3%
`CN(C=O)CP(=O)(O)CN1CCCCC1` is listed as · | i | 1.6%
`CCCc1cc2c(=O)c(-c3ccccn3)c(C)oc2cc1O` is listed as -0.94 | i | -0.2%

New compounds follow:
structure	WNV protease inh	MT1-MMP promoter	Hsc70
O=C(CNC(=O)c1cccs1)OCC(=O)c1cccs1	1.57	i	-8.4%
NS(=O)(=O)c1ccc(CCNc2ncnc3sccc23)cc1	1.48	i	-5.0%
CC1CCCC(C)N1c1nnc(NC(=O)Cn2c(=O)oc3ccccc32)s1 (stereo unspecified)	0.18	i	2.2%
CCc1nc(OCCN(CC)CC)c2oc3ccccc3c2n1	-0.36	i	-3.0%
O=C(c1ccc(Cl)cc1)N1CCN(c2ccc(F)cc2)CC1	·	i	1.3%
CCCc1cc(=O)[nH]c(SCC(=O)N(Cc2ccccc2)C(C)C)n1	-1.39	i	2.8%
O=C1Cn2c(nc3ccccc32)N1c1cccc(C(F)(F)F)c1	·	i	-2.7%
O=C(CSc1nnc(C2COc3ccccc3O2)o1)NC1CCCCC1 (stereo unspecified)	0.43	i	-0.8%
COc1ccc(C)cc1NC(=O)c1nnn(CCc2ccccc2)c1N	0.29	i	1.0%
CCOC(=O)Nc1nnc(CCc2ccccc2)s1	0.56	i	3.3%
O=C(CN1C(=O)CCS(=O)(=O)c2ccccc21)Nc1ccc2c(c1)OCCO2	1.05	i	-5.1%
Cc1cccc(-n2nnnc2SCC(=O)NCCN2C(=O)CSC2=O)c1	-1.75	i	3.5%
Cc1cccc2c1nc(-c1ccccc1)n1nnnc21	0.86	i	0.1%
CCCOc1nc2c(c(=O)n(C)c(=O)n2C)n1CCC	-0.51	i	6.9%
CC(C)CNS(=O)(=O)c1ccc2c(c1)OCCO2	·	i	-3.6%
Fc1ccc(C(c2nnnn2Cc2cccs2)N2CCN(c3ccccc3)CC2)cc1 (stereo unspecified)	·	i	2.0%
CCCC(=O)Nc1ccc2c(c1)nc1n2CCOC1	-0.69	i	-3.5%
Cc1nn(-c2ccc(C(=O)O)cc2)c(=O)c2ccccc12	0.32	i	0.0%
O=C(c1cccs1)N1CCN(C(=O)C2CCCO2)CC1 (stereo unspecified)	-0.65	i	3.3%
CCCCC1OC23CCCCC2C(C#N)(C(=N)O3)C1(C#N)C#N (stereo unspecified)	·	i	1.9%
O=C(NCc1ccco1)c1cc(-c2cccs2)on1	1.08	i	-6.4%
Cc1nn2c3c(cnc2c1-c1ccccc1)C(=O)CC(C)C3 (stereo unspecified)	-0.82	i	7.0%
O=C(COc1ccc(S(=O)(=O)Nc2ccccc2)cc1)N1CCOCC1	0.06	i	5.3%
Cn1c(=O)c2c(nc(SCC(=O)N3CCCCCC3)n2C)n(C)c1=O	·	i	0.1%
CC(Oc1ccc(Cl)cc1Cl)C(=O)Nc1ccc(N2CCN(C)CC2)cc1 (stereo unspecified)	-0.66	i	2.8%
COc1ccc(S(=O)(=O)CCC(=O)NC2CCCCC2)cc1	0.78	i	1.2%
O=C(Nc1nc2c(s1)CCCC2=O)c1cnccn1	-0.25	i	-0.2%
CCOc1ccc(CCNC(=O)CCc2nc(-c3ccc(C)cc3)no2)cc1OCC	-0.88	i	4.5%
O=c1[nH]c2cccnc2n1Cc1ccccc1	·	i	5.3%
COc1ccc(-c2cc(C(F)(F)F)n3nc(C(=O)N4CCOCC4)c(Cl)c3n2)cc1	1.58	i	-3.5%
CCC(=O)c1ccc(CCCCCC(=O)O)s1	-0.96	i	6.0%
O=C(Cn1cnc2c(nnn2Cc2ccccc2F)c1=O)OCc1ccccc1	-0.38	i	-0.1%
Cc1ccc(N(CC(=O)N2CCn3c2nc2ccccc23)S(=O)(=O)c2c(C)n[nH]c2C)cc1	0.09	i	5.2%
O=C1C=C(c2ccccc2)OC2(CCCC2)O1	0.27	i	1.6%
CC(=O)C1C(c2ccc3ncccc3c2)NC(=O)NC1(O)C(F)(F)F (stereo unspecified)	-2.26	i	2.1%
Cc1ccc(C(=O)N2CCN(C3c4cccc5cccc(c45)C3NS(=O)(=O)c3ccccc3)CC2)cc1 (stereo unspecified)	·	i	0.7%
CCCc1cc(=O)oc2cc(OCc3nn[nH]n3)ccc12	·	i	1.5%
CC(c1nnnn1C1CCCCC1)N(Cc1ccccc1)Cc1cccnc1 (stereo unspecified)	0.89	i	1.9%
CC1CC(=O)N(CC(=O)Nc2ccc3c(c2)OCCO3)c2ccccc2S1 (stereo unspecified)	-0.39	i	-3.6%
CN1CCN(CC#CC2(O)CCCCC2)CC1	2.08	i	3.8%
COc1ccc(S(=O)(=O)N2CCN(C3CCCCCCC3)CC2)cc1	-0.56	i	-6.0%
O=C(NCc1ccccc1Br)c1ccco1	-0.08	i	0.1%
O=C(NCCCN1CCOCC1)C1CCC(=O)N1CCc1ccccc1 (stereo unspecified)	-0.97	i	8.1%
COc1ccccc1C(=O)C1Nc2ccccc2-c2nnc(SC)nc2O1 (stereo unspecified)	0.41	i	7.5%
CC(Sc1nc(-c2ccccc2)cc(C(F)(F)F)n1)C(=O)N1CCCC1 (stereo unspecified)	-0.45	i	4.8%
CCOC(=O)N1CCN(c2c(NCCCN(C)c3ccccc3)c(=O)c2=O)CC1	-0.14	i	1.5%
COC(=O)c1ccccc1NC(=O)Cc1ccccc1OC	·	i	3.0%
N=c1n(CCOc2ccccc2)c2ccccc2n1CCN1CCOCC1	1.19	i	3.5%
CN1CCN(C2=Cc3ccccc3Sc3cc(F)c(F)cc32)CC1	·	i	1.1%
CCOc1ccc(NS(=O)(=O)c2cc(Cl)ccc2OC)cc1	-0.55	i	-5.3%
Cc1nc2ccc(NC(=O)c3cc(S(=O)(=O)N4CCOCC4)ccc3C)cc2s1	·	i	4.3%
CCCCCn1c(=O)[nH]c2cc(C(=O)NCCCN3CCC(C)CC3)ccc2c1=O	0.19	i	4.1%
O=C(Nc1ccc(CN2CCOCC2)cc1)c1cccs1	0.42	i	0.0%
CCC(=O)Nc1nonc1-c1nc2ccccc2n1Cc1ccc(Cl)c(Cl)c1	-0.32	i	-1.9%
Cc1cccc(N2CCN(c3cc(C)nc4nnnn34)CC2C)c1 (stereo unspecified)	0.96	i	2.8%
Cc1c(NC(=O)CC(=O)Nc2c(C)n(C)n(-c3ccccc3)c2=O)c(=O)n(-c2ccccc2)n1C	1.57	i	-1.3%
CCn1c(C(O)c2cccc(OC)c2OC)nc2ccccc21 (stereo unspecified)	-0.45	i	4.9%
N#CCC(=O)Nc1ccccc1C(=O)O	-0.72	i	5.8%
Cc1ccccc1NC(=O)CCn1c(=O)oc2ccccc21	0.01	i	-3.9%
Cc1ccc(OCC(=O)c2cc(C)c(C)cc2C)c([N+](=O)[O-])n1	·	i	2.2%

(more compounds)
structure	WNV protease inh	MT1-MMP promoter	Hsc70
O=C(NCCCn1ccnc1)c1cccc(S(=O)(=O)Nc2ccccc2F)c1	-0.44	i	-0.5%
Clc1cc(Cl)c2nc(N3CCCCC3)sc2c1	-1.45	i	-3.4%
Cc1cc(NC(=O)CCN2C(=O)C3C4C=CC(C4)C3C2=O)c2ccccc2n1 (stereo unspecified)	-1.02	i	-7.8%
CCOC(=O)c1cnc(-n2nc(C)cc2C)nc1N1CC(C)OC(C)C1 (stereo unspecified)	-0.37	i	-6.6%
Cc1ccc(-c2noc(CN(C(=O)c3cccs3)C(C)C)n2)cc1	1.11	i	-1.7%
CCOc1ccc(N(C(=O)Nc2ccccc2)C2=NCCC2)cc1	·	i	3.5%
c1ccc(-c2nc3ccccc3nc2N2CCOCC2)cc1	0.41	i	0.2%
CN1C(=O)CC(C(=O)O)SC1=Nc1cccc(C(F)(F)F)c1 (stereo unspecified)	0.41	i	0.8%
COc1ccc2c(c1)CCCC21NC(=O)N(CC(N)=O)C1=O (stereo unspecified)	·	i	0.7%
CCCCCn1c(CCNC(=O)CCC)nc2ccccc21	-0.22	i	2.4%
Cc1ccc(NC(=O)CN(c2cc(C)cc(C)c2)S(=O)(=O)c2c(C)noc2C)nc1	-0.83	i	3.5%
Cc1ccc(N2CC(C(=O)Nc3cccnc3)CC2=O)cc1 (stereo unspecified)	-0.97	i	5.0%
CCn1c(SCC(=O)N2CCCc3ccccc32)nnc1-c1cccs1	-0.12	i	4.9%
O=C(Nc1ccccn1)c1ccco1	·	i	-5.0%
Cc1cc(NC(=O)c2cc3n(n2)C(C(F)(F)F)CC(c2ccco2)N3)n(-c2ccccc2)n1 (stereo unspecified)	-0.19	i	0.2%
Cc1ccc(C(=O)CCC(=O)Nc2cccnc2)cc1C	-0.41	i	3.1%
O=C(Nc1ccc2c(c1)ncn2C1CCCCC1)c1ccco1	0.09	i	-4.5%
OC(COc1ccc2c(c1)CCC2)CN1CCN(c2ccccc2F)CC1 (stereo unspecified)	0.91	i	-3.9%
CCCCOc1ccccc1C1NC(=O)NC(C)=C1C(=O)OCCOCC (stereo unspecified)	-0.31	i	3.4%
O=C(N[C@@H](Cc1ccccc1)C(=O)O)c1cccnc1	0.33	i	-0.5%
CC1(C)Oc2ccc3ccc(=O)oc3c2/C(=C/NCCO)C1=O	0.55	i	-2.3%
COc1ccc(Nc2nc(OC)nc(N3CCN(c4ccc(OC)cc4)CC3)n2)cc1	-0.24	i	1.1%
O=S(=O)(N[C@@H]1C[C@H]2CC[C@@H]1C2)c1cccs1	-0.04	i	-2.4%
CN(C)CCCCCNCCCNC(=O)/C=N\O	-0.97	i	2.2%
CCOc1ccc(Br)cc1-c1noc(-c2cccs2)n1	-0.31	i	4.7%
CCOC(=O)c1cc(-c2ccc(C)o2)nn1CCC#N	0.94	i	10.2%
O=C(CSc1ncnc2c1nnn2-c1ccc(F)cc1)NCc1ccco1	1.23	i	-0.1%
CCC1(CC)C(=O)C(C)(C)C(=O)OC1c1ccccn1 (stereo unspecified)	0.02	i	-3.0%
O=C(CN1CCN(c2ccccn2)CC1)N1c2ccccc2CCc2ccccc21	0.11	i	-1.1%

3 records drawn at random from the list so far:
structure	WNV protease inh	MT1-MMP promoter	Hsc70
O=C(CN1CCN(c2ccccn2)CC1)N1c2ccccc2CCc2ccccc21	0.11	i	-1.1%
O=S(=O)(N[C@@H]1C[C@H]2CC[C@@H]1C2)c1cccs1	-0.04	i	-2.4%
CN(C)CCCCCNCCCNC(=O)/C=N\O	-0.97	i	2.2%

This is a subset (hit frequency here may not be typical).
